YjeE inh: qHTS Assay for Inhibitors of YjeE | Potency, µM | AID 605, 2007 | 71,000 tested, 0.05% active | purified YjeE, fluorescence polarisation of a bound ADP probe | tRNA threonylcarbamoyladenosine biosynthesis protein TsaE (Escherichia coli (strain …; active = well fitted falling curve; inconclusive = weaker or top-dose-only fall, or a rising curve; inactive = flat or poorly fitted curve;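 also: top concentration of the series not given in the record; excess ADP was the control for the full effect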
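Fluorescence polarization of a BODIPY Texas Red–ADP probe (2 uM) bound to purified YjeE (10 uM) was read after 15 min room-temperature incubation with compounds. Loss of polarization marks inhibitors; ADP serves as titrated control.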
Bst PK mod: Pyruvate Kinase. partly purified Bacillus stearothermophilus pyruvate kinase, luminescence ATP production; ribose 5-phosphate activator present at AC10. Potency, µM. 51,000 tested, 1.2% active; in the data active means potency below about 11 µM; inconclusive means mostly about 12 µM to 25 µM; inactive means weaker than that;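 the screen sought inhibitors and activators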;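 also: potency is read from the fitted curve at half-maximal effect; scaled between full activation by ribose 5 phosphate and full inhibition by luteolin; about four in five hits inhibit and the cells do not say which; series up to 57 µM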
The depositor's hits bear a star; i = inactive; ? = inconclusive; . = no result given. This is a subset, so the mix of outcomes need not match the whole.

SMILES	YjeE inh	Bst PK mod
CC(c1ccco1)N(C(=O)c1ccc(Cl)s1)c1ccccn1 (stereo not drawn)	i	>57
O=C(NC1CCCCC1)NC1CCN(S(=O)(=O)Cc2ccccc2)CC1	i	>57
CS/C(=N\S(=O)(=O)c1cccs1)Nc1ccc(N2CCOCC2)cc1	i	?
CN(C)CCN1C(=O)c2oc3ccccc3c(=O)c2C1c1cccc(Br)c1 (stereo not drawn)	i	>57
CC1(C(=O)NCc2cc(F)cc(C(F)(F)F)c2)C=CC2(CCCCC2)N1C(=O)c1ccccc1 (stereo not drawn)	i	.
Cn1c(=O)c2c(-c3ccccc3)n(-n3cnnc3)cc2n(C)c1=O	i	>57
Cc1cc(=O)oc2cc(OCC(=O)N3CCCc4ccccc43)ccc12	i	>11
COc1ccc(N2CCN(CCCNC(=O)C3CCCN(S(=O)(=O)c4cnc[nH]4)C3)CC2)cc1 (stereo not drawn)	i	.
CCOC(=O)c1c(C)n(OCc2ccccc2)c2ccc3nonc3c12	i	.
CCCS(=O)(=O)c1nc(S(=O)(=O)c2ccc(C)cc2)c(N2CCCC2)s1	i	.
Cc1cc(Cl)c(S(=O)(=O)Nc2ccon2)cc1OCC(=O)NC1CCCCC1	i	>57
CCOC(=O)Cn1c(S(=O)(=O)Cc2ccccc2)nc2ccccc21	i	.
C=CCn1c(=O)c(C#N)cc2c(=O)n3ccccc3nc21	i	>57
COc1ccc(-n2nnnc2SCC(=O)c2cccc(OC)c2)cc1	i	>57
CCOc1ccc(C(=O)c2nc3c(n2O)CCCC3)cc1	i	.
CCOc1ccc(CCNC(=O)C2CC(=O)N(C3CCCC3)C2)cc1OCC (stereo not drawn)	i	>57
CN1CCN(/C=N/c2sc3c(c2C#N)CCCCC3)CC1	.	>26
C/C(=C\C1CCCCC1)C(NC(=O)c1cccnc1)c1ccc(-c2ccccc2)cc1 (stereo not drawn)	i	.
CC(C)NC(=O)CCS(=O)(=O)c1ccc(Br)s1	i	>57
O=C(c1csc2c1CCCC2)N1CCN(c2ncccn2)CC1	i	.
COc1nc(OC)nc(N2CCC(C(=O)Nc3cccc4c3CCCC4)CC2)n1	i	>57
CCN(CC)C(=O)C1CCN(CC2CC=CCC2)CC1 (stereo not drawn)	i	>57
CCOc1ccc(OCC)c(NC(=O)CN2CCN(c3cc(C)ccc3C)CC2)c1	i	>57
COc1ccc(OC)c(C2C(C(=O)c3ccco3)=C(O)C(=O)N2CCCN2CCOCC2)c1 (stereo not drawn)	.	>26
CN(C)c1nc(Oc2ccc(C(=O)OCC(=O)Nc3ccccc3)cc2)nc(N(C)C)n1	i	.
Cc1nn(-c2cc(Cl)ccc2N)c(=O)c2ccccc12	i	.
CCOC(=O)CN1C(=O)SC(CC(=O)Nc2nccs2)C1=O (stereo not drawn)	i	>57
CCn1c(SCCN2CCCCC2)nnc1-c1ccc(S(=O)(=O)N2CCOCC2)cc1	i	>57
O=C(CSc1nnc(-c2ccc(Cl)s2)o1)N1CCOCC1	i	>57
COC(=O)c1cc(Br)c(=O)n(-c2ccc(OC)cc2)c1	i	>57
COC(=O)Nc1nc(C)c(C(=O)N(C)C)s1	i	>57
Cc1cc(Br)ccc1NC(=O)CNC(=O)CN(C)Cc1nc2ccccc2c(=O)[nH]1	i	>57
CCN(CC)S(=O)(=O)c1ccc(S(=O)(=O)N(Cc2ccccn2)Cc2ccco2)cc1	i	>57
CC(C)NCC(O)COc1cccc2[nH]ccc12 (stereo not drawn)	.	>26
CSc1ccccc1NC(=O)CN(Cc1ccc(Cl)cc1)S(C)(=O)=O	i	>57
c1ccc(Cn2nnnc2C(c2ccccn2)N2CCOCC2)cc1 (stereo not drawn)	i	>57
CC1CC(C)CN(C(=O)COC(=O)CNS(=O)(=O)/C=C/c2ccccc2)C1 (stereo not drawn)	i	>57
CCCC(=O)N1c2ccc(-c3csc(N)n3)cc2CC1C (stereo not drawn)	i	i
Cc1ccc(C2C(C(=O)c3cc4ccccc4o3)=C(O)C(=O)N2CCN(C)C)o1 (stereo not drawn)	.	>26
O=C(CSc1nnc(-c2cccs2)n1Cc1ccco1)c1ccc2c(c1)OCO2	i	>57
Cc1cc(C)cc(OCC(=O)NCc2nc(-c3ccccc3)no2)c1	i	>57
CCOC(=O)c1cccc(-n2c(C)nc3ccccc3c2=O)c1	i	>57
Cc1cccc(C)c1NC(=O)[C@H](C)N	i	.
Cc1ccc2nc(NCc3ccco3)c(C=NCc3ccco3)c(=O)n2c1	i	.
COCCCNC(=O)CCCn1c(=O)[nH]c2ccccc2c1=O	i	>57
O=C(CN1CCN(c2nc(-c3ccccc3)cs2)CC1)NCc1ccc2c(c1)OCO2	i	>57
Nc1c2ccccc2nc2c(O)cccc12	i	.
COc1ccc(N2CCN(S(=O)(=O)c3cccc(C(F)(F)F)c3)CC2)cc1	i	>57
CCOc1ccc(C2CC(=O)NC3=C2C(=O)CCC3)cc1Cl (stereo not drawn)	i	>57
CCCC(c1cc(C(C)(C)C)c(O)cc1C)c1cc(C(C)(C)C)c(O)cc1C	i	.
CCOC(=O)c1sc(=S)n(-c2cc(F)ccc2F)c1N	i	>57
COC(=O)C1=C(C)N(CCC2=CCCCC2)C(=O)C1	i	>57
Cc1cc(C(=O)NCc2ccccc2)c(=O)[nH]c1C	i	.
O=C(Cn1c(SCC(=O)NC2CCCC2)nnc1-c1ccncc1)Nc1ccc2c(c1)OCO2	i	>57
CCC(CC)C(=O)NCCc1cc2cc(C)c(C)cc2[nH]c1=O	i	.
Cc1cc(-c2ccccc2)nc(N2CCN(c3ccccn3)CC2)n1	i	>57
CCOC(=O)c1sc2nc3c(cc2c1N)COC(C)(C)C3	i	i
COc1ccccc1C(=O)Nc1cc(-c2nn3c(C)nnc3s2)ccc1C	i	.
CN1/C(=C\C(=O)C(F)F)C(C)(C)c2ccccc21	i	.
CCCCSc1nnc2nc(C)cc(C)n12	i	>57

Another view of some results above:
structure,YjeE inh,Bst PK mod
CCOC(=O)c1cccc(-n2c(C)nc3ccccc3c2=O)c1,i,>57
Cc1cccc(C)c1NC(=O)[C@H](C)N,i,.
Cc1ccc2nc(NCc3ccco3)c(C=NCc3ccco3)c(=O)n2c1,i,.
COCCCNC(=O)CCCn1c(=O)[nH]c2ccccc2c1=O,i,>57
O=C(CN1CCN(c2nc(-c3ccccc3)cs2)CC1)NCc1ccc2c(c1)OCO2,i,>57

Continuation:
SMILES	YjeE inh	Bst PK mod
COc1ccc(S(=O)(=O)N2CCN(c3ccc(C)cc3C)CC2)cc1OC	i	.
CCOC(=O)N1CCN(C(=O)c2ccc3c(c2)NC(=O)C(N2CCOCC2)S3)CC1 (stereo not drawn)	i	>57
C=C(C)c1nc(N)nc(N)n1	i	>57
CCOC(=O)c1oc2c(CN3CCCCC3C)c(O)ccc2c(=O)c1-c1ccc(OC)c(OC)c1 (stereo not drawn)	i	>57
O=C(COc1ncnc2ccc(Br)cc12)Nc1ccc(N2CCOCC2)cc1	i	>57
Cc1ccc(CNC(=O)C2c3ccccc3C(=O)N3CCc4ccccc4C23)o1 (stereo not drawn)	i	>57
CN(C)c1ccc(N=Cc2nc(-c3ccccc3)oc2O)cc1	?	>57
CC(=O)Nn1cc2c(=O)n(C)c(=O)n(C)c2c1	i	.
COCCCN1C(=O)C(O)=C(C(=O)c2ccco2)C1c1ccccc1 (stereo not drawn)	i	>57
Cc1nn(Cc2ccccc2Cl)c(C)c1NC(=O)c1noc2c1CCCCC2	i	>57
O=C(NC1CCCc2ccccc21)c1ccc(CNc2c(N3CCOCC3)c(=O)c2=O)cc1 (stereo not drawn)	i	.
N#Cc1ccccc1CSc1nc(O)cc(=O)[nH]1	i	>57
COC(=O)c1ccccc1NC(=O)N1CCCC1	i	>57
CCOC(=O)C(Cc1ccccc1)NC(=O)CCc1c(C)nc2ncnn2c1C (stereo not drawn)	i	>57
CSc1nc(-c2ccccc2)nc(N2CCCC2)c1C(C)=O	i	>57
Cc1c(-n2c(CN3C(=O)c4ccccc4C3=O)nc3ccccc3c2=O)c(=O)n(-c2ccccc2)n1C	i	.
CCOc1cc(C2C(C(=O)OC)=C(C)N=C3SC(C)C(=O)N32)ccc1OC(C)=O (stereo not drawn)	i	>57
O=C(C1CC(=O)N(c2ccccc2)C1)N1CCN(C2=NS(=O)(=O)c3ccccc32)CC1 (stereo not drawn)	i	>57
c1ccc(N2CCN(CCc3nnc4n3CCCCC4)CC2)cc1	i	>57
COCCn1c(=S)[nH]c2cc(C(=O)N3CCc4ccccc43)ccc2c1=O	i	>57

Complete entries, quoted from the list. Order of screens: YjeE inh, Bst PK mod
Cc1ccc(CNC(=O)C2c3ccccc3C(=O)N3CCc4ccccc4C23)o1 (stereo not drawn) is listed with i, >57
c1ccc(N2CCN(CCc3nnc4n3CCCCC4)CC2)cc1 is listed with i, >57
COCCCN1C(=O)C(O)=C(C(=O)c2ccco2)C1c1ccccc1 (stereo not drawn) is listed with i, >57
CCOC(=O)N1CCN(C(=O)c2ccc3c(c2)NC(=O)C(N2CCOCC2)S3)CC1 (stereo not drawn) is listed with i, >57
CCOC(=O)C(Cc1ccccc1)NC(=O)CCc1c(C)nc2ncnn2c1C (stereo not drawn) is listed with i, >57

Continuation.
SMILES	YjeE inh	Bst PK mod
COc1ccc(-c2[nH]ncc2-c2ccc(Cl)cc2)c(O)c1	i	>57
COc1ccc(-n2c(=O)c(-c3cc(F)cc(F)c3)nc3cnc(N(C)C)nc32)cc1	i	.
N#Cc1c(N)[nH]c(=S)c(C#N)c1-c1ccccc1	i	.
COc1ccccc1-c1c(C)oc2cc(OC(=O)c3ccco3)ccc2c1=O	i	>57
COC(=O)c1ccccc1NC(=O)CSc1nnnn1-c1ccc(C)cc1C	i	.
C[N+](C)(C)c1ccc([C@H](N)C(=O)O)cc1	i	.
CCOc1nc2ccccc2nc1NS(=O)(=O)c1ccccc1	i	>57
N#Cc1ccc(CSc2nnc(-c3cnccn3)o2)cc1	i	>57
O=C(CSC1=NCCN1)c1ccccc1	i	.
Cn1cc(CNC(=O)COc2ccc(Cl)cc2Cl)cn1	i	>57
CCC(c1nnnn1C1CCCC1)N(Cc1cccs1)Cc1cc2cc(C)ccc2[nH]c1=O (stereo not drawn)	i	>57
O=C1CCc2ccccc2O1	i	.
O[C@@H]1C2CCCC1[C@]1(O)CCCCC1C2 (stereo partly drawn)	i	>57
O=C(C1CCN(c2nnc(-n3cccc3)s2)CC1)N1CCc2ccccc2C1	i	.
O=C(C1CC1)N1CCc2cc(S(=O)(=O)N3CCCc4ccccc43)ccc21	i	>57
O=C(O)COc1ccc(S(=O)(=O)c2ccc(OCC(=O)O)cc2)cc1	i	.
Cc1cccc(NC(=O)c2c(O)c3cccc4c3n(c2=O)CCC4)n1	i	>57
Clc1ccc(C2CC(c3cccs3)n3ncnc3N2)c(Cl)c1 (stereo not drawn)	i	.
COc1ccc(-n2c(SCC(=O)N3CCCCC3C)nnc2-c2cccnc2)cc1 (stereo not drawn)	i	>57
Cn1c(Cn2c(=O)sc3ccccc32)nnc1SCC(=O)Nc1ccc(Cl)cc1	i	.
Cc1oc2cc(O)cc(C)c2c(=O)c1-c1cnn(-c2ccccc2)c1	.	>26
O=C(COc1ccc(N2CC(C(=O)O)CC2=O)cc1)Nc1cccc(C(F)(F)F)c1 (stereo not drawn)	i	>57
Cc1nc2c(c(=O)n1CC1CCCO1)c1nc3ccccc3nc1n2CC(C)C (stereo not drawn)	.	>11
COC(=O)CNC(=O)[C@@]1(C)C=C[C@@H](Cc2ccccc2)N1C(=O)OC	i	.
CCn1c(SCC(=O)Nc2ccc3c(c2)c2ccccc2n3CC)nnc1-c1ccco1	i	>57
COc1ccc(N2CCN(C(=O)c3cccc(N4C(=O)C5CC=CC(C)C5C4=O)c3)CC2)cc1 (stereo not drawn)	i	>57
CC(C)=CC(=O)OCC(=O)Nc1ccccc1Cl	i	>57
COc1cccc(C2CC(c3cccc(Br)c3)n3ncnc3N2)c1 (stereo not drawn)	i	.
O=C(O)CNS(=O)(=O)c1ccc(F)cc1	i	.
CC(C)CN1CCC2(CC1)CCN(C(=O)c1ccncc1)CC2	i	.
CC(C)n1c(SCC(N)=O)nc2c1c(=O)n(C)c(=O)n2C	i	>57
CSc1nc(C)c2c(c1C#N)CCCC2	.	>26
O=C(Cn1cnc2c(cnn2-c2ccc(Cl)cc2)c1=O)NCC1CCCO1 (stereo not drawn)	i	.
Cc1cnc(CNc2ccnc(-c3cccc(C#N)c3)n2)cn1	i	.
Cc1ccc2c(c1)c1nc3ccccc3nc1n2CCN1CCOCC1	i	?
CN1CCN(C(=O)c2ccc3c(c2)NC(=O)C(C)(C)O3)CC1	i	>57
CCn1cc(C(=O)NCCCOC(C)C)c2cc(OC)c(OC)cc2c1=O	i	>57
COc1cc(S(=O)(=O)N2CCOCC2)ccc1NC(=O)COC(=O)c1ccccn1	i	>57
CCn1c(SCC(=O)C(C)(C)C)nnc1-c1ccccc1OC	i	>57
CCC1(C)Cc2nc3sc(C(=O)O)c(N)c3cc2CO1 (stereo not drawn)	i	>57
CCOC(=O)N1CCN(c2cc(=O)n(-c3ccccc3Cl)c(=O)[nH]2)CC1	i	.
COC(=O)c1c(-c2cccc(C)c2)csc1N	i	>57
COc1ccccc1-c1nn2c(-c3ccc(C(C)(C)C)cc3)nnc2s1	.	>26
Cc1ccc2cccc(NC(=O)c3ccc(Br)o3)c2n1	i	>57
CC(C)c1nnc(NC(=O)CSc2ncn[nH]2)s1	i	.
